ALR H2O2 inh = inhibitors of human ALR sulfhydryl oxidase, primary screen, biochemical, H2O2 detection, HRP-luminol luminescence, single point; FAD-linked sulfhydryl oxidase ALR (Homo sapiens), P55789; purified ALR, DTT oxidation; inhibition, % (test concentration not listed); 290,000 tested, 3.8% active; AID 485317, 2010;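 active = mean and each replicate at 75% or more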;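 note: stock transfer was 7.5 nL into about 7.5 µL; 0% = neutral wells and 100% = wells with inactivated enzyme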
Target sequence (P55789 whole entry, looked up): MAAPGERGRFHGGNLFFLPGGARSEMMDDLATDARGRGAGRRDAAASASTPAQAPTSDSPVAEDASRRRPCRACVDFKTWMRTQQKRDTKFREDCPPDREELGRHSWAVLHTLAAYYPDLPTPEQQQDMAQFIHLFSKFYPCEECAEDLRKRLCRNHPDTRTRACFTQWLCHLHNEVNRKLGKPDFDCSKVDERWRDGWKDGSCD
Ecoli rRNA inh = reduced GFP signal of wild-type E. coli, primary screen, bacterial rRNA inhibitor project, GFP/RFP fluorescence, OD600, single point; 350,000 tested, 1.6% active; GFP signal change (wild-type ribosome), % (concentration not given with the values); E. coli WT GFP vs humanized-ribosome RFP mutants, 24 h; hits give low values; DMSO median 0, no signal -100; AID 720706, 2013;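 active = significant combined selectivity score with lowered wild-type GFP, culture density cut under 30%, mutant RFP and density less affected; inactive = any of these conditions unmet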; note: one replicate is shown; some compounds called inactive have numbers as strong as hits
E coli growth = E. coli growth inhibition, primary screen, OD600; AID 1053175, 2014; OD600 absorbance (test concentration not listed); Escherichia coli growth, 23 h; hits give low values; 330,000 tested, 0.21% active;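 active = OD600 absorbance below the run mean of sample wells minus 3.6 SD, in any replicate, cut at about 0.56 in these data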;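 note: stock transfer was 300 nL into about 60 µL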
UCH37 inh = inhibitors of human UCH37 deubiquitinase, primary screen, biochemical, Ub-AMC cleavage, fluorescence. Ubiquitin carboxyl-terminal hydrolase isozyme L5 (Homo sapiens), Q9Y5K5. AID 588478, 2011. inhibition, % (no concentration beside the values). purified proteasome/UCH37. 330,000 tested, 0.33% active;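 active = mean of two replicates above 20%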;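 note: 0% = compound-free wells with enzyme and 100% = wells lacking proteasome; stock transfer was 100 nL into about 20 µL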
Target sequence (Q9Y5K5 whole entry, looked up): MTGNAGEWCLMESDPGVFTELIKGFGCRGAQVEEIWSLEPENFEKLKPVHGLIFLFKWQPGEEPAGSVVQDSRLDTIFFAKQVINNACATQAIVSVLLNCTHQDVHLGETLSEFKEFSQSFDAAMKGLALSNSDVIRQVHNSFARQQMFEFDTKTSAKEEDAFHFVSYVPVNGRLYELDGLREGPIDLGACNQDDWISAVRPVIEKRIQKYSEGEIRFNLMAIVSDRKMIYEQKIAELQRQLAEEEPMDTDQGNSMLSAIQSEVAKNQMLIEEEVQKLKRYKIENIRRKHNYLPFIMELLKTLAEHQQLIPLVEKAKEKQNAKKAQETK
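Material: human UCH37 enzyme supplied as purified proteasome complex / Amount: 0.15 nM proteasome as dispensed / Buffer or medium: pH 7.4 Tris-HCl (50 mM) with ovalbumin, ATP-MgCl2, DTT / Times: preincubation 30 min, reaction 25 min, room temperature / Technique: AMC fluorescence from Ub-AMC cleavage, excitation 355 nm, emission 460 nm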
FGF22 binding = binders of human FGF22 protein, primary screen, FGF22 synaptogenesis inhibitor project, biophysical, thermal shift, single point; Fibroblast growth factor 22 (Homo sapiens), Q9HCT0; recombinant FGF22 thermal shift, SYPRO orange fluorescence; percent of sucrose octasulfate shift, DMSO zero; calls only at 9.99 µM; 340,000 tested, 1.5% active; AID 651658, 2012;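 active = melting point raised past a set limit in the mean and every replicate; three in four hits are not shown here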
HNF4A DNA FP = change in binding of human HNF4A to DNA, primary screen, biochemical, fluorescence polarization, FITC-DNA | AID 1224865, 2016 | activity change, % at 10 µM | 1 h | 360,000 tested, 0.3% active; in the data active = activity change above about 30%, passing the limit was not always enough;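 note: controls were the assay level and a saturating level of protein; the project sought stronger binding though the title names inhibitors; some compounds called inactive have numbers as strong as hits; positive values seem to mean higher polarization but the record does not say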
B2AR ag = beta2AR agonists driving receptor internalization, primary screen, cell-based, FAP fluorogen, flow cytometry; 340,000 tested, 0.43% active; Am2.2-beta2AR cells; reference of the scale not given here; response, % (test concentration not listed);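 active = response above a set limit, near 3 SD of response in nonfluorescent compounds, cut at about 42% in these data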;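 note: stock transfer was 100 nL into about 11 µL; a reference agonist was the positive control; negative values mostly stem from fluorescent compounds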
Target sequence (P07550 whole entry, looked up): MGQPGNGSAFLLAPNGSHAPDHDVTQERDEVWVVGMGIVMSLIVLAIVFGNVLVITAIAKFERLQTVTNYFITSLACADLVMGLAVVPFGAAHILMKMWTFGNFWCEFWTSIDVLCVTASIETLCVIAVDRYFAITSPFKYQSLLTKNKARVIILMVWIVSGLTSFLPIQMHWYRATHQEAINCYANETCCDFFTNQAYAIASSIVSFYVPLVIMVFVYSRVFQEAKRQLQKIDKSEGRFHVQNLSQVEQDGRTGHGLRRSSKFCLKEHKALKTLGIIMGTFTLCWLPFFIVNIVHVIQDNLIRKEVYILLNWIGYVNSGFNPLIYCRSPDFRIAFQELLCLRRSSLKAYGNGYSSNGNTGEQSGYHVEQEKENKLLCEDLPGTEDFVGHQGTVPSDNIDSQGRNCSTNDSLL
Ecoli rRNA inh OD600 = also measured in Ecoli rRNA inh; calls as there; OD600 change, %; measured here: OD600 growth;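 optical density of the mix in the first replicate; 0 = DMSO median and -100 = no signal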
Ecoli rRNA inh RFP = also measured in Ecoli rRNA inh; calls as there; RFP signal change, %; measured here: RFP humanized mutant strains;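 first replicate; 0 = DMSO median and -100 = no signal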
Numbers without * were called inactive; i = inactive; nt = no result given. These rows are one share of the data. The share of hits here may be higher or lower than overall.

SMILES	ALR H2O2 inh	Ecoli rRNA inh	Ecoli rRNA inh OD600	Ecoli rRNA inh RFP	E coli growth	UCH37 inh	FGF22 binding	HNF4A DNA FP	B2AR ag
CC1CCN(CCCNC(=O)CCc2nnc3n(CCc4ccccc4)c(=O)c4ccccc4n23)CC1	-2	-8	-6	-4.0	0.58	-0.2	i	1.1	1
CCN(CC)P(=O)(Nc1ccc(C)cc1Br)c1ccc(N(C)C)cc1NC(=O)c1ccco1 (stereo unspecified)	-28	16	10	4.1	0.62	-0.7	nt	1.6	20
O=C(Nc1oc2ccccc2c(=O)c1-c1ccc2c(c1)OCO2)c1ccco1	nt	0	5	0.6	nt	nt	i	2.1	nt
Cc1cccc(C)c1NC(=O)CCCSc1nnc(-c2ccc(Cl)cc2)n1-c1ccccc1	nt	nt	nt	nt	0.76	4.8	i	-0.5	-9
Cc1ccc(C)c(S(=O)(=O)N2CCC3(CC2)OCCO3)c1	-5	4	1	1.9	0.72	6.4	i	-2.8	-9
CC(C)C(C(=O)NCc1ccco1)N(Cc1ccco1)C(=O)CNS(=O)(=O)c1ccc(F)cc1 (stereo unspecified)	7	0	-2	0.0	0.67	2.3	i	-4.1	-7
COCCn1c(-c2ccccc2F)n[nH]c1=S	72	nt	nt	nt	0.66	2.7	nt	1.4	1
CCOc1cccc(CN2CCN(Cc3ccc(C)o3)C(CCO)C2)c1O (stereo unspecified)	30	7	3	2.4	0.68	4.3	nt	4.5	-4
CN(CCO)C(=O)c1cccc2c1-c1ccccc1C2=O	-9	11	-7	2.0	0.68	7.1	i	-0.7	-5
CSc1nc(C)c(C(=O)C[n+]2ccccc2C)cc1C#N	13	17	19	3.8	0.72	5.3	i	0.3	-1
O=C(COC(=O)c1ccccc1OC(F)F)Nc1ccc(N2CCCCC2)cc1	nt	1	-5	2.1	0.68	4.9	i	-0.3	-4
COc1ccccc1NC(=O)c1c(NC(=O)c2ccco2)sc2c1CCC2	-1	nt	nt	nt	0.72	i	nt	-5.5	8
O=C(Nc1ccc(CN2CCOCC2)cc1)c1cccc(F)c1	-1	nt	nt	nt	0.71	5.8	nt	0.4	0
CC1CCCCC12NC(=O)N(CC(=O)OCc1c(F)cccc1Cl)C2=O (stereo unspecified)	25	-24*	-16*	0.3*	0.67	0.3	i	0.1	-1
Cc1cc(Br)ccc1NC(=O)CCN1C(=O)c2ccncc2C1=O	-9	nt	nt	nt	0.7	-0.7	nt	0.9	-9
COc1ccc(NC(=O)CSc2ncnc3sc(C)cc23)cc1	-36	-3	-6	1.9	0.71	1.6	i	-0.7	-20
O=C(NCc1ccccc1Cl)c1ccc(CS(=O)(=O)c2ccccc2)o1	-2	-4	-8	-1.5	0.64	1.6	nt	-0.2	2
CCOC(=O)CSc1nc2c(sc(=S)n2CCc2ccccc2)c(=O)n1Cc1ccco1	-4	nt	nt	nt	0.71	3.5	nt	-4.7	4
CC(C(=O)N(C1CC1)C1(C(=O)Nc2ccccc2)CCCC1)N1C(=O)c2ccccc2C1=O (stereo unspecified)	-4	nt	nt	nt	0.76	-0.4	nt	-1.9	4
CCCN(CC(=O)Nc1ccc(F)c(F)c1F)C(=O)c1ccc(N2CCCC2=O)cc1	1	-2	2	-2.9	0.64	1.9	i	-0.3	-7
Cc1ccc(C(=O)Nc2cc(C)nn2CCC#N)cc1	nt	1	4	-0.1	0.64	2.9	i	0.9	3
CCOC(=O)c1ccc(NC(=O)NCc2ccn(CC)n2)cc1	-2	nt	nt	nt	0.69	5.9	nt	5.5	2
COc1ccc2c(c1)O/C(=C\c1ccccc1O)C2=O	1	nt	nt	nt	0.65	0.1	i	2.6	-1
COCCn1c(Cc2ccccc2)nnc1SCC(=O)NC(C)C	-2	nt	nt	nt	0.69	0.6	nt	0.9	2
CCN(CC)S(=O)(=O)c1ccc(Cl)c(NC(=O)COC(=O)c2ccc([N+](=O)[O-])o2)c1	-23	-2	-2	8.9	0.68	6.8	i	12	5
CCOc1ccccc1C(=O)NC(C(=O)Nc1cccnc1)C(C)C (stereo unspecified)	-5	4	-1	-3.9	0.64	0.1	i	-2.7	-22
NS(=O)(=O)c1ccc(CCNC(=O)C2CC(=O)N(Cc3ccccc3Cl)C2)cc1 (stereo unspecified)	0	2	13	-0.7	0.69	-0.4	i	-1.5	6
CCOC(=O)C1CCN(CC(=O)c2c(C)[nH]c3cc(C)ccc23)CC1	-13	nt	nt	nt	0.77	4.9	nt	20	5
CCN(CC(=O)NCc1ccncc1)S(=O)(=O)c1cc(Cl)ccc1Cl	1	3	4	1.9	0.66	4.6	i	2.1	-5
CCC(C)NC(=O)C1CCCN(S(=O)(=O)c2ccc3c(c2)CC(C)N3C(C)=O)C1 (stereo unspecified)	-4	2	9	-1.5	0.71	4.5	i	2.5	2

Part of the list above with just B2AR ag, FGF22 binding and UCH37 inh:
SMILES | B2AR ag | FGF22 binding | UCH37 inh
CCC(C)NC(=O)C1CCCN(S(=O)(=O)c2ccc3c(c2)CC(C)N3C(C)=O)C1 (stereo unspecified) | 2 | i | 4.5
Cc1cc(Br)ccc1NC(=O)CCN1C(=O)c2ccncc2C1=O | -9 | nt | -0.7
CSc1nc(C)c(C(=O)C[n+]2ccccc2C)cc1C#N | -1 | i | 5.3
CCOC(=O)C1CCN(CC(=O)c2c(C)[nH]c3cc(C)ccc23)CC1 | 5 | nt | 4.9

The listing continues:
SMILES	ALR H2O2 inh	Ecoli rRNA inh	Ecoli rRNA inh OD600	Ecoli rRNA inh RFP	E coli growth	UCH37 inh	FGF22 binding	HNF4A DNA FP	B2AR ag
CCCN1Cc2cccc(C(=O)Nc3ccc(CN4CCCC4)cc3)c2C1=O	-2	nt	nt	nt	0.69	5.4	nt	-0.3	-12
CC(C)(C)C(=O)N1CCN(c2ccc([N+](=O)[O-])c(-n3nc(-c4ccccc4)c4ccccc4c3=O)c2)CC1	nt	nt	nt	nt	0.72	1.4	nt	-0.5	3
COc1ccc(C(=O)OCC(=O)NCc2cccs2)c(OC)c1OC	nt	4	0	0.0	0.67	1.7	i	-5.1	9
CC1CC(C)CN(C(=O)c2ccc(Br)c(S(=O)(=O)N3CCOCC3)c2)C1 (stereo unspecified)	nt	-27	-34	0.1	0.67	3.2	i	-1.9	-3
CCOc1cc(NC(=O)c2ccccc2C(=O)O)c(OCC)cc1NC(=O)c1ccccc1F	nt	-5	15	-8.8	0.72	4.4	i	-4.3	-4
c1ccc(-c2cc(N3CCCCC3)ncn2)cc1	-6	nt	nt	nt	0.72	-2.7	nt	-3.7	-6
CN1CCN(C(=O)c2cc3c(c(-c4cccc(Br)c4)n2)[C@@H](CCO)N(S(=O)C(C)(C)C)C3)CC1 (stereo partly specified)	nt	7	9	4.2	nt	nt	i	3.6	nt
COc1ccccc1N1CCN(CCCCOc2ccc(C)cc2C)CC1	-15	-17	-17	-5.3	0.67	5.9	i	2.5	2
O=C(OCc1ccccc1F)c1cc(S(=O)(=O)N2CCCCC2)ccc1N1CCOCC1	nt	4	3	-0.5	nt	nt	i	2.1	nt
CCn1c(=O)c(C(=O)NCc2ccccc2Cl)c(O)c2ccccc21	0	7	1	-1.2	0.71	0.4	i	6.3	2
Cc1cccc(S(=O)Cc2ccc(C(=O)N3CCOCC3)o2)c1 (stereo unspecified)	5	4	-9	-3.2	0.68	1.9	i	1.1	6
O=[N+]([O-])c1ccc(Cl)cc1NCC1CCCO1 (stereo unspecified)	5	1	-2	-3.8	0.63	4.7	i	-0.4	-9
O=S(=O)(NC(=S)c1ccccc1)c1ccc(Cl)cc1	-10	2	-9	-3.6	0.64	4.3	i	1.9	14
N#Cc1sc2nc(-c3cccs3)cc(-c3ccccc3)c2c1N	-6	-16	-18	7.6	0.7	-128	i	0.2	-9
Cc1csc(SCC(=O)NC(=O)c2ccccc2)n1	3	4	4	-1.9	0.61	-1.4	nt	-6.0	-7
Cc1ccc(N2C(=O)CC(Sc3nc(C)cc(C)n3)C2=O)cc1 (stereo unspecified)	-3	7	0	3.4	0.66	4.0	i	2.5	-5
O=C(COc1cccnc1[N+](=O)[O-])NCCc1ccc(Cl)cc1	-9	-4	-7	0.9	0.7	3.0	i	-0.5	-15
COc1ccc(Cc2noc(-c3ccc(C)cc3)n2)cc1	-11	nt	nt	nt	0.67	0.2	nt	-0.2	-8
COc1ccc(S(=O)(=O)n2c(CCN3CCOCC3)nc3ccccc32)cc1	51	nt	nt	nt	0.66	1.7	nt	1.1	4
O=C(CN1CCN(C2CCCCC2)CC1)Nc1ccccc1-c1ccccc1	-4	nt	nt	nt	0.69	7.0	nt	-1.9	-1
COc1cccc(NC(=O)c2cc(OC)c(OC)c(OC)c2Br)c1	97*	-4	2	-1.5	0.67	-0.3	i	0.4	0
CCOc1ccc(Br)cc1S(=O)(=O)N1CCC(C(N)=O)CC1	-9	-2	0	2.6	0.69	3.5	i	2.6	3
Cc1ccc(N(C(=O)Cn2nnc(-c3ccccc3F)n2)C(C(=O)NC2CCCC2)c2ccncc2)cc1 (stereo unspecified)	-1	5	5	-2.9	0.65	2.6	i	2.3	-2
COc1cccc(CNc2cc(CSc3ccc(Cl)cc3)nc(C)n2)c1	1	nt	nt	nt	0.7	3.1	nt	-0.6	4
CCn1c(SCC(=O)N2CCOCC2)nnc1-c1ccco1	-1	3	3	-1.1	0.69	1.3	i	0.0	9
COC(=O)C1(CCSC)NC(c2ccccc2OC)C2C(=O)N(C)C(=O)C21 (stereo unspecified)	nt	nt	nt	nt	0.75	1.7	nt	0.0	-2
COc1cc2c(cc1OC)CN(Cc1ccc(OC)c(C)c1OC)CC2	-5	nt	nt	nt	0.71	3.3	nt	-3.3	2
Cc1nc2ccccc2c(=O)n1C1CCCCCC1	-3	nt	nt	nt	0.78	1.7	nt	-2.0	6
CC(C)C(=O)N(Cc1cc2ccccc2[nH]c1=O)C(C)(C)C	-6	nt	nt	nt	0.72	0.0	nt	2.3	1
CC1=C(C(=O)N(C(C)C)C(C)C)CC(CC(=O)NCCCN(C)C)C(=O)N1Cc1ccccc1 (stereo unspecified)	nt	13	15	-1.0	nt	nt	i	2.1	nt
CC(=O)N1CCN(Cc2cc(=O)oc3ccc4ccccc4c23)CC1	nt	-4	1	-2.5	nt	nt	i	-5.1	nt
COC(=O)c1cccc(NC(=O)c2cccnc2C(=O)O)c1C	0	22	12	-4.7	0.7	2.8	i	5.1	0
Cn1c(CN2CCN(S(C)(=O)=O)CC2)nc2cc([N+](=O)[O-])ccc21	-9	11	9	-1.5	0.7	1.8	i	2.7	0
O=C(CSc1ncn[nH]1)N1c2ccccc2Sc2ccccc21	-7	-12	-8	3.8	0.65	1.4	i	2.9	1
Cc1ccc(N/C(N)=N/c2nc3c(c(=O)[nH]2)CCCC3)c(C)c1	1	nt	nt	nt	0.7	2.3	nt	3.6	6
O=C(/C=C/c1cccc(F)c1)OCC(=O)N1CCCC1	-1	2	7	0.9	0.65	1.8	nt	-3.5	5
O=C(COC(=O)c1ccc(O)cc1)NCCC1=CCCCC1	0	-25	-34	-3.8	0.7	3.7	i	2.6	4
